Vaccinia pol inh: blocks vaccinia virus processive DNA synthesis; 46,000 compounds, 0.94% hits; AID 493162; in vitro processive DNA synthesis, absorbance read-out; hits give low values; some inactives read as strong as hits; normalized absorbance, % (concentration not given with the values);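 active means replicate mean up to 90% and picked by the depositor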;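 further: 100% = median of the test wells of a plate; 100 nL library stock went into each well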
An asterisk follows results filed as active. This is a subset; rates above refer to the full screens.

Compound	Vaccinia pol inh
O=C(CCc1ccccc1)NCCN1CCN(C(=O)CCc2ccccc2)CC1	100
O=C(COc1ccccc1)Nc1ccc(-n2nncc2-c2ccccc2)cc1	99
CCN1C2=C(C(=O)CC(C)(C)C2)C(c2ccc(OC)cc2)C2=C1CC(C)(C)CC2=O	100
O=C(CSCc1ccc(Cl)cc1)c1cc2ccccc2o1	102
FC(F)(F)c1ccc2cc(CSc3ccc(Cl)cc3)ccc2n1	78
NC(=O)c1ccc(Nc2nc(=S)[nH]c3ccccc23)cc1	99
COCc1cn2ccccc2n1	100
O=C1c2ccccc2S(=O)(=O)N1CC(O)COc1ccc(Cl)cc1Cl (stereo unspecified)	106
COc1cnc(-c2ccccc2)[nH]c1=O	116
O=C(O)CC(Sc1nc2sc3c(c2c(=O)[nH]1)CCCC3)C(=O)O (stereo unspecified)	99
CN(C(=O)C1CCC(CNS(=O)(=O)c2cccc3cccnc23)CC1)C1CCCCC1 (stereo unspecified)	99
CCOc1ncccc1C(=O)Nc1ccc(Cl)cc1	93
Nc1nnnn1/N=C\C=C\c1ccccc1	100
c1ccn2cc(C34CC5CC(CC(C5)C3)C4)nc2c1	112
COc1ccccc1CNS(=O)(=O)c1cccs1	101
CC(C)Nc1ncnc2scc(-c3ccccc3)c12	102
CN(C)c1cc(-c2ccc(Cl)cc2)oc(=O)c1Cl	86
CN(C)c1ccc(/C=N/c2nc3ccccc3n2Cc2ccc(Cl)cc2)cc1	100
Cc1c(C)n(CC(O)CNC2CCCC2)c2ccccc12 (stereo unspecified)	97
Cc1noc(-c2ccccc2)c1NC(=O)N1CCSCC1	100
N#Cc1c(NC(=O)C2CC2)sc2c1CCCC2	93
CCOC(=O)CCSc1ncnc2sc3c(c12)CCC3	99
N#CC1=C(N)N2C(=C(C#N)C13CCN(Cc1ccccc1)CC3)Nc1ccccc12	91
CC(C)=CCc1c(O)cc(O)c2c1O[C@H](c1ccccc1)CC2=O	100
O=C(CSC1=NCCS1)c1cc(Cl)ccc1Cl	104
CC(C)C1Cc2[nH]c(=O)c(C(=O)O)cc2CO1 (stereo unspecified)	109
CN1CC=C2C(C(=O)O)=C(N)C(C#N)(C#N)[C@@H](c3ccncc3)[C@@H]2C1	101
CCN(CC)c1ccc2cc(C(N)=O)c(=Nc3ccccc3)oc2c1	99
COC(=O)NCC12CC3CC(CC(C3)C1)C2	100
O=C(O)CC(SC(=NC1C=CCCC1)N1CCCCC1)C(=O)O (stereo unspecified)	101
O=C(Cc1nc2ccccc2[nH]1)c1ccc(F)cc1F	100
CCCc1nnc2n1N=C(c1ccc(Cl)cc1)CS2	100
COC(=O)c1cc(S(=O)(=O)N(C)C2CCCCC2)cn1C	98
COc1ccc(CC(=O)N2CCCCCC2)cc1OC	101
COc1ccc(OCCSc2ncnc3nc[nH]c23)cc1	100
OC(CNCCc1ccccc1)Cn1nnnc1-c1ccccc1 (stereo unspecified)	108
FC(F)(F)c1ccc(-c2noc(-c3ccco3)n2)cc1	101
Cn1cc(CCCC(=O)N2CCCC2)c2ccccc21	102
CCC(CO)NCC(O)Cn1c2c(c3cc(C)ccc31)CCCC2 (stereo unspecified)	95
Cc1ccc(NC(=O)CSc2cc(=O)n(C)c3ccccc23)nc1	97
CC1(C)CC(=O)C(C=Nc2ccc(F)c(F)c2)=C(O)C1	98
OC(CCN1CCCC1)(c1ccccc1)C1CCCCC1 (stereo unspecified)	100
CCCNC(=O)Cn1nc(C)n2c(cc3cc(C)ccc32)c1=O	97
CN(C)CCNC(=O)c1cc(N2CCc3ccccc3C2)nc2ccccc12	102
Fc1cccc(CSCc2c(F)cccc2Cl)c1	108
c1ccc2c(NCNc3noc4ccccc34)noc2c1	89
Cc1ccc(-c2cc(C(=O)N3CCCCC3)c3ccccc3n2)cc1C	94
CC(C)C(=O)N=c1scc(-c2ccccc2)n1-c1ccccc1Cl	92

Single entries from the list:
Vaccinia pol inh, `Cc1ccc(NC(=O)CSc2cc(=O)n(C)c3ccccc23)nc1` is entered as 97
Vaccinia pol inh, `CN(C)CCNC(=O)c1cc(N2CCc3ccccc3C2)nc2ccccc12` is entered as 102
Vaccinia pol inh, `CCCNC(=O)Cn1nc(C)n2c(cc3cc(C)ccc32)c1=O` is entered as 97

Filtered by structure, the compounds so far containing a carbonyl joined to an NH by a bond outside any ring
Compound	Vaccinia pol inh
O=C(CCc1ccccc1)NCCN1CCN(C(=O)CCc2ccccc2)CC1	100
O=C(COc1ccccc1)Nc1ccc(-n2nncc2-c2ccccc2)cc1	99
NC(=O)c1ccc(Nc2nc(=S)[nH]c3ccccc23)cc1	99
CCOc1ncccc1C(=O)Nc1ccc(Cl)cc1	93
Cc1noc(-c2ccccc2)c1NC(=O)N1CCSCC1	100
N#Cc1c(NC(=O)C2CC2)sc2c1CCCC2	93
CCN(CC)c1ccc2cc(C(N)=O)c(=Nc3ccccc3)oc2c1	99
COC(=O)NCC12CC3CC(CC(C3)C1)C2	100
Cc1ccc(NC(=O)CSc2cc(=O)n(C)c3ccccc23)nc1	97
CCCNC(=O)Cn1nc(C)n2c(cc3cc(C)ccc32)c1=O	97
CN(C)CCNC(=O)c1cc(N2CCc3ccccc3C2)nc2ccccc12	102

(continued)
Compound	Vaccinia pol inh
O=C(NCc1cccs1)c1cnc2ccccn2c1=O	105
COc1ccccc1C(=O)OCC(=O)Nc1ccccc1	104
Cc1ccc(CNC(=O)Cn2c(SCc3ccccc3F)nc3cccnc32)cc1	101
CS(=O)(=O)c1ccc(N)cc1	91
CNC(=O)Cn1cc2c(n1)CCC(C)C2 (stereo unspecified)	98
CC(C)(c1ccccc1)c1ccc(OCCN2CCOCC2)cc1	99
COC(=O)c1ccc(OCC(O)Cn2c(C)[n+](C)c3ccccc32)cc1 (stereo unspecified)	99
Cc1ccc(Cl)cc1N1CCN(C(=O)CCNS(=O)(=O)c2ccc3c(c2)CCC(=O)N3)CC1	99
O=C(O)C1CCN(C(=O)N2CCOc3ccccc32)CC1	97
Cn1cc(S(=O)(=O)N2CCCC2)cc1C(=O)N1CCN(c2ccccc2)CC1	100
COC(=O)c1c(NC(=O)C2CCCC2)sc2c1CCCC2	89
CS(=O)(=O)c1ccc2nc(NC(=O)Oc3ccccc3)sc2c1	98

Next part
SMILES | Vaccinia pol inh
CCC(=O)N1c2cc(Cl)ccc2-n2c(nn(C(=O)CC)c2=O)N1C(=O)CC | 99
O=C1CS/C(=N\C(=O)N2c3ccccc3Sc3ccccc32)N1 | 99
COc1ccc(C(=O)N=C2CCC(C#N)=C3c4cc(OC)c(OC)cc4CCN23)cc1 | 100
O=C(c1ccccc1)C1CCN(C(=O)Nc2ccc(Cl)cc2)CC1 | 100
Cc1ccc(NS(=O)(=O)c2cc(C(=O)O)ccc2Br)cc1 | 100
CN1CC(CNC(=O)OCc2ccccc2)CC2c3cccc4c3c(cn4C)CC21 (stereo unspecified) | 102
COc1ccc(NC(=O)c2ccc3c(=O)n(Cc4ccco4)c(=S)[nH]c3c2)cc1OC | 112
COC(=O)c1c(N)oc2c(-c3cccc(C(F)(F)F)c3)c3c(C(=O)OC)c(N)oc3cc12 | 90
CCC(C)N1Cc2ccccc2N(CC)C1c1ccccc1F (stereo unspecified) | 91
CN(C(=S)SCc1ccccc1)c1ccccc1 | 98
COc1ccccc1N1CCN(S(=O)(=O)c2c(C)ccc3nsnc23)CC1 | 99
C=CCN1C(=O)C(C(=O)NC(C)(C)C)C2CC1(C)Oc1ccccc12 (stereo unspecified) | 115
CSc1cccc(NC2=NC3CS(=O)(=O)CC3S2)c1 (stereo unspecified) | 111
CN1C(=O)CC(c2ccccc2)Sc2ccccc21 (stereo unspecified) | 100
O=C(OCC1CC(c2ccccc2)=NO1)c1ccc(Cl)cc1 (stereo unspecified) | 103
CCOC(=O)N1CCC(N2C(=O)c3ccc(C(=O)O)cc3C2=O)CC1 | 102
CCCc1cc(N2CCN(c3ccccc3)CC2)n2c(nc3ccccc32)c1C#N | 100
COc1cccc2cc(C(=O)NCCc3c(C)[nH]c4ccc(OC(F)(F)F)cc34)c(=O)oc12 | 100
CCN/C(C)=C/c1nsc(Nc2ccc(Cl)c(Cl)c2)n1 | 96
C/C(CCc1ccc2c(c1)OCO2)=N\N1C(=N)SC(C(=O)Nc2ccc(C(=O)O)cc2)CC1=O (stereo unspecified) | 100
CCN(CC)C(=O)c1cccc(S(=O)(=O)N(C)C)c1 | 105
COc1ccc(S(=O)(=O)N2CCN(C(=O)/C=C/c3ccccc3)CC2)cc1 | 102
O=C(COc1ccccc1)Nc1ncc(Cc2ccccc2)s1 | 100
c1ccc2c(CNC3CCCCCC3)c[nH]c2c1 | 99
[S-]c1n[n+]2c(-c3ccccc3)cc(-c3ccccc3)nc2s1 | 100
CCOC(=O)C1CCCN(C(=O)S(=O)(=O)c2ccc(-c3ccccn3)s2)C1 (stereo unspecified) | 108
CC(=O)N1CCOc2cc(S(=O)(=O)N3CCCCC3)ccc21 | 102
O=C(Nc1ncccn1)c1cccc(F)c1 | 101
COc1ccc(NC(=O)C2CCCCC2)c2ccccc12 | 100
CSc1cccc(NS(=O)(=O)c2ccc3c(c2)OC(C)CN3C(C)=O)c1 (stereo unspecified) | 95
N/C(=N\C(=S)Nc1ccccc1)N1CCOCC1 | 105
O=C(O)COc1ccccc1O | 102
CC(C)NC(=S)N(CCc1ccncc1)C(C)C | 96
CC(=O)NCCCc1nc2ccccc2n1Cc1ccccc1Cl | 86
Cc1ccc(N=Cc2ccc3ncccc3c2)c(F)c1 | 107
COc1ccc(Br)cc1CNC(=O)C1CCCN(c2nc3ccccc3o2)C1 (stereo unspecified) | 92
CCOC(=O)C1CC(CC2OCCO2)=NO1 (stereo unspecified) | 100
Cc1ccc(C(=O)c2oc3ccccc3c2NC(=O)c2ccco2)cc1 | 102
COc1ccc(-c2nc(CS(=O)CC(=O)NCC3CCCO3)c(C)o2)cc1 (stereo unspecified) | 91
Cc1cccc(N2CCN(CCNC(=S)Nc3c(C)cccc3C)CC2)c1C | 91
CCCC(C)C(=O)Nc1nnc(Cc2ccc(OC)cc2)s1 (stereo unspecified) | 101
CSc1nc(-c2ccccn2)nc(N)c1C#N | 97
CC(C)C(=O)Nc1ccc(-c2nc3ccc(NC(=O)C(C)C)cc3[nH]2)cc1 | 100
COc1ccccc1-c1coc2cc(OCC(=O)OCC(C)C)ccc2c1=O | 100
CCOC(=O)N1CCN(C(=O)c2ccc3c(c2)sc2nc(-c4ccc(OC)cc4)cn23)CC1 | 99
Cc1cccc(N2CCN(C(=O)CN3C(=O)c4ccccc4C3=O)CC2)c1C | 100
CN(CCC#N)S(=O)(=O)c1ccc2[nH]cc(C(=O)O)c(=O)c2c1 | 100
CC(C)C(=O)n1nc(-c2cccnc2)nc1NCc1cccs1 | 100
CN1C/C(=C\c2cccc3ccccc23)C(=O)/C(=C/c2cccc3ccccc23)C1 | 113
Cc1ccc(S(=O)(=O)c2nc(S(=O)(=O)c3ccc(C)cc3)c(NCc3ccco3)s2)cc1 | 107
C=CCNC(=O)C1CC(=O)N(c2ccc(OCC(=O)Nc3cc(C)cc(C)c3)cc2)C1 (stereo unspecified) | 102
O=C(c1ccco1)N1CCn2c1nc1ccccc12 | 99
CC(N=Cc1nc2ccccc2n1C)C12CC3CC(CC(C3)C1)C2 (stereo unspecified) | 100
COc1ccc(-c2nc(CS(=O)CC(=O)NC(C)c3ccccc3)c(C)o2)cc1OC (stereo unspecified) | 94
COc1cc(Nc2cnn(-c3nc4ccccc4s3)c(=O)c2Cl)cc(OC)c1 | 99
O=S(=O)(CCSc1nccc(-c2cccs2)n1)c1ccc(F)cc1 | 96
CCN(CC)c1cc(CS(=O)c2ccccc2)nc(-c2ccccc2)n1 (stereo unspecified) | 103
COc1ccccc1N(CC(=O)NCC1CCCO1)S(=O)(=O)c1ccc(C)cc1 (stereo unspecified) | 99
O=C(O)CCCC(=O)Nc1nc2ccccc2[nH]1 | 97
O=C(/C=C/c1ccccc1)Nc1nccs1 | 88

Next section; it opens with the five that closed the last part.
SMILES | Vaccinia pol inh
O=S(=O)(CCSc1nccc(-c2cccs2)n1)c1ccc(F)cc1 | 96
CCN(CC)c1cc(CS(=O)c2ccccc2)nc(-c2ccccc2)n1 (stereo unspecified) | 103
COc1ccccc1N(CC(=O)NCC1CCCO1)S(=O)(=O)c1ccc(C)cc1 (stereo unspecified) | 99
O=C(O)CCCC(=O)Nc1nc2ccccc2[nH]1 | 97
O=C(/C=C/c1ccccc1)Nc1nccs1 | 88
CCCCC[C@H](O)/C=C/[C@H]1C=CC(=O)[C@@H]1C/C=C\CCCC(=O)O | 98
N#Cc1ccc(CSc2nnc(-c3cccs3)n2-c2ccccc2)cc1 | 98
O=C(COC(=O)c1cc(Br)ccc1O)NCc1ccccc1 | 94
NC(=O)c1ccsc1NC(=O)c1cc(-c2ccccc2)nc2ccccc12 | 105
[N-]=C=C1C(=O)N(CCc2ccccc2)C(=O)[C@H]([n+]2ccccc2)[C@H]1c1ccc(Cl)cc1 | 100
CC(=O)N(/C=C1\Sc2ccccc2C1=O)c1ccc(C)c(C)c1 | 93
Cc1ccsc1C=Nc1ccccc1C(=O)c1ccccc1 | 90
Cc1cc2ncn(CCC3CCCCC3)c2cc1C | 93
O=C(NC1=NCCCN1)c1c(Cl)cccc1Cl | 101
CCOc1ccccc1Nc1ncnc2c1cnn2-c1ccccc1 | 99
O=C(O)CCN1C(=O)/C(=C/c2ccc(-c3ccc(Cl)cc3Cl)o2)SC1=S | 100
COc1ccc(CN2CCC(C(=O)NC3CCCC3)CC2)cc1OC | 95
CC1=C(C#N)C(C(F)(F)F)(C(F)(F)F)N=C(C2CCCCC2)N1 | 107
Cn1c(=O)c2c(nc(SCSc3nc4c(c(=O)n(C)c(=O)n4C)n3C)n2C)n(C)c1=O | 100
NNC(=O)COc1ccccc1 | 102
Cc1c(O)ccc2c(=O)c(-c3ccccc3Cl)coc12 | 85
COc1cccc(/C=C2\SC(=O)N(CCC(=O)O)C2=O)c1 | 89
Cc1ccc2cc3c(nc2c1)N(c1ccc(C(=O)NCc2ccco2)cc1)CC3 | 103

Source: PubChem
